AID923: qHTS Assay for Allosteric/Competitive Inhibitors of Caspase-1: Spectroscopic Profiling in AFC Spectral Region; compound fluorescence, AFC spectral region (405/520 nm); almost no hit is shown here; Potency, µM (top dose mostly 57.5 µM), without a hit: at the top dose fluorescence increase, hits mostly activators; 75,000 compounds, 1.1% hits; active = well fitted activation curve with a large enough effect;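 note: 0% is about no effect; scaled to a free AFC standard on each plate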
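Titrations up to 57 uM read every 20 sec for 3 min (405/520 nm) with 50 nM caspase 1 and 5 uM Ac-WEHD-AFC, pH 7.5 HEPES buffer. Fluorescence-vs-time intercept gave baseline, scaled against on-plate AFC standard.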
* hit, by the source's call. Potency is the fitted concentration of half-maximal effect. An excerpt, so the mix of outcomes need not match the whole.

Screening O=c1cc(-c2ccc(O)cc2)oc2cc(O)ccc12 returned AID923 6.5%.
Screening CCCCCC(=O)O[C@@]1(C(C)=O)CCC2C3CCC4=CC(=O)CC[C@@]4(C)C3CC[C@]21C (stereo partly drawn) returned AID923 0.5%.
Screening COc1ccc(-c2cc(=O)c3c(O)cc(O[C@H]4OC(COC5OC(C)C(O)C(O)[C@H]5O)C(O)C(O)C4O)cc3o2)cc1O (stereo partly drawn) returned AID923 0.0%.
`C[C@H]1[C@H](C)CC[C@]2(C(=O)O)CC[C@]3(C)C(=CCC4[C@@]5(C)C[C@@H](O)[C@H](O)[C@@](C)(CO)[C@@H]5CC[C@]43C)[C@H]12` (stereo partly drawn) gave AID923 -0.3%.
`CC(=O)NCCCCCC(=O)O` gave AID923 0.2%.
`C=CC(C)(O)CC/C=C(\C)CCC=C(C)C` (stereo not drawn) gave AID923 -4.4%.
Screening Cc1onc(-c2ccccc2Cl)c1C(=O)NC1C(=O)N2C1SC(C)(C)C2C(=O)O (stereo not drawn) returned AID923 -1.7%.
`CCCC(NC(C)C(=O)N1C(C(=O)O)CC2CCCCC21)C(=O)OCC` (stereo not drawn) gave AID923 1.1%.
For C=CCSCC=C the results were AID923 -0.6%.
Cc1coc2c1C(=O)C(=O)c1c-2ccc2c1CCCC2(C)C was read as AID923 -3.5%.

Ordered by SMILES length (high to low): some entries from above.
`C[C@H]1[C@H](C)CC[C@]2(C(=O)O)CC[C@]3(C)C(=CCC4[C@@]5(C)C[C@@H](O)[C@H](O)[C@@](C)(CO)[C@@H]5CC[C@]43C)[C@H]12` (stereo partly drawn) gave AID923 -0.3%.
Screening COc1ccc(-c2cc(=O)c3c(O)cc(O[C@H]4OC(COC5OC(C)C(O)C(O)[C@H]5O)C(O)C(O)C4O)cc3o2)cc1O (stereo partly drawn) returned AID923 0.0%.
Screening Cc1onc(-c2ccccc2Cl)c1C(=O)NC1C(=O)N2C1SC(C)(C)C2C(=O)O (stereo not drawn) returned AID923 -1.7%.
Screening O=c1cc(-c2ccc(O)cc2)oc2cc(O)ccc12 returned AID923 6.5%.
`C=CC(C)(O)CC/C=C(\C)CCC=C(C)C` (stereo not drawn) gave AID923 -4.4%.

Assay outcomes as filed in PubChem BioAssay.
